N370S GC = qHTS Assay for Inhibitors and Activators of N370S glucocerebrosidase as a Potential Chaperone Treatment of Gaucher Disease | 330,000 tested, 0.092% active | Potency, µM (highest dose often 59.4 µM), inactives show at the highest dose activity change, negative = inhibition, hits mostly inhibitors | N370S GC spleen homogenate, 4MU-glucoside fluorescence;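 note: 0% = full enzyme activity and -100% = no enzyme basal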
DT40 TDP1 CPT = qHTS for Inhibitors of human tyrosyl-DNA phosphodiesterase 1 (TDP1): qHTS in cells in presence of CPT. chicken DT40 Tdp1-/-;hTDP1 cells + 20 nM CPT, ATP luminescence, 48 h. Potency, µM (top dose mostly 46.2 µM), for the others: top-dose activity change, negative = growth inhibition, most hits filed as inhibitors. 420,000 tested, 12% active. AID 686979, 2013; note: nearly all actives have a fitted effect of over 55% in size
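Cell growth measured by CellTiter-Glo luminescence after a minimum 48 h, 37 C compound exposure with 20 nM CPT in Tdp1-knockout DT40 cells stably expressing hTDP1, seeded 400/well; qHTS titration format.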
* = called active by the depositor; ? = inconclusive; . = no result given; & = joins results of further samples; [ ] = remark or other dose. Calls come from the whole dose curve; as a rule, active = well fitted curve in the direction sought with a large enough effect; inconclusive = small, poorly fitted or top-dose-only effect, or another doubt; inactive = no such curve, though single readings can be large; an effect the other way counts as inactive or inconclusive. Unless noted, % is set by controls: 0 for no effect and ±100 for the full control effect; potency is the fitted concentration of half-maximal effect.

Start of the listing, in advance (two entries):
SMILES	N370S GC	DT40 TDP1 CPT
Cc1cc(=O)oc2c(C)c(OCC(=O)NCCCn3ccnc3)ccc12	-6%	0%
O=C(NNC(=S)Nc1ccccc1C(F)(F)F)c1ccc(Br)o1	-7%	-16%

The whole of this part, from the first entry:
SMILES	N370S GC	DT40 TDP1 CPT
Cc1cc(=O)oc2c(C)c(OCC(=O)NCCCn3ccnc3)ccc12	-6%	0%
O=C(NNC(=S)Nc1ccccc1C(F)(F)F)c1ccc(Br)o1	-7%	-16%
CC(C)NC(=O)c1c(O)c2cccc3c2n(c1=O)CCC3	7%	?
CCOC(=O)CN1C(=O)N[C@@H](c2cccc(F)c2)C(C(=O)OC)=C1C	0%[12.8 µM]	?
Fc1ccc(/C=N/N2CCCCC2)c(F)c1	6%	-4%
O=C(CCCOc1ccccc1)Nc1cccnc1	-26%	-2%
CCNC(=O)N(CCOC)CC1CCCN(C2Cc3ccccc3C2)C1 (stereo not given)	-2%	25%
CCOC(=O)CNC(=O)Cc1ccc(OC)cc1	3%	-4%
CN(CC1CCOCC1)C(=O)CC1C(=O)NCCN1Cc1cccc(Oc2ccccc2)c1 (stereo not given)	-6%	-23%
Cc1ccc(C(=O)Nc2nncs2)cc1S(=O)(=O)N1CCOCC1	1%	-11%
Cc1ccccc1Cn1cnc2c(NS(C)(=O)=O)c(C)c(C)cc21	4%	?
COc1ccccc1N1CCN(CCCn2c(=S)[nH]c3ccccc3c2=O)CC1	-4%	13µM*
CC(C)(C)C(=O)NNC(=O)CCCOc1ccc(Cl)cc1Cl	-15%	-22%
COc1ccc(-n2nnc3c(=O)n(C/C=C/c4ccccc4)cnc32)cc1	11%	?
CCCCN(C(=O)c1ccc(OC)c([N+](=O)[O-])c1)c1c(N)n(CCC)c(=O)[nH]c1=O	-13%	-2%
Cc1ccc(S(=O)(=O)N2CCOCC(=O)NCCOCCNC(=O)COCC2)cc1	5%	-1%
Cc1nnc(NC(=O)c2ccc(S(=O)(=O)N3CCCCCC3)cc2)o1	0%	-23%
COc1cccc(CNC(=O)CN2C(=O)COc3ccc(S(=O)(=O)N4CCOCC4)cc32)c1	-1%	-11%&-7%
Cn1ccnc1C1CCCCN1Cc1nc(Cc2cccc(C(F)(F)F)c2)no1 (stereo not given)	-6%	-21%
COC(=O)c1nnn(CC(=O)NC(=O)Nc2ccccc2F)c1C(=O)OC	-13%	16%&-9%
Cc1cc(NC(=O)CSc2nc3c(C)ccc(C)c3cc2C#N)no1	1%	?
O=C(CN(c1ccccc1)S(=O)(=O)c1ccccc1[N+](=O)[O-])N1CCCC1	-3%	-1%
CC(NC(=O)C12CC3CC(CC(C3)C1)C2)c1ccc2c(c1)OCCO2 (stereo not given)	16%	-15%
CCOc1ccc(OCC)c(NC(=O)C2CCN(S(=O)(=O)c3cnc[nH]3)CC2)c1	-3%	-12%
O=C(NCc1ccc2c(c1)OCO2)c1cc(F)c(F)cc1Cl	-17%	21%
CCCCSc1nc2c(cc1C#N)CCC2	14%	-1%
COc1cc(-c2noc(C)c2C#CCO)cc(OC)c1OC	-17%	?
Cc1cc(Cl)ccc1OCCCC(=O)OCC(N)=O	0%	-2%
CC(C)CSc1n[nH]c(=S)s1	-2%	-19%
Cc1cc(NS(=O)(=O)c2c(C)[nH]c(=O)[nH]c2=O)ccc1Br	-9%	4%
NC(=O)CC(NC(=S)NCc1ccccc1)C(=O)O (stereo not given)	-3%	-14%
COc1ccc(CSCC(=O)N/N=C/c2ccccc2OCc2ccccc2)cc1	20%	?
CC1CC(CCC(=O)NC(=S)Nc2ccc(S(N)(=O)=O)cc2)C(=O)O1 (stereo not given)	-1%	-4%
COC(=O)c1[nH]c(C)c(/C(O)=C2\C(=O)C(=O)N(CCN3CCOCC3)C2c2cccnc2)c1C (stereo not given)	-1%	-13%
O=C(NC1(C(F)(F)F)N=C2SCCN2C1=O)C1CCCCC1 (stereo not given)	-8%	12%
CCOC(=O)c1c[nH]n2c(=O)cc(C)nc12	-2%	-2%
O=C(Nc1ccc(F)cc1)Nc1ccc2c(c1)CCC2	-2%	-5%
COC(=O)Cn1c2ccc(F)cc2c2nc(C)sc21	-7%	0%
CSc1ccc(S(=O)(=O)NCC(=O)OCC(=O)NCc2ccco2)cc1[N+](=O)[O-]	-5%	-12%
Cc1c(NC(=O)c2ccc(COc3ccc4ccccc4c3)o2)c(=O)n(-c2ccccc2)n1C	-5%	?

2 of the compounds above, as comma-separated lines.
Compound,N370S GC,DT40 TDP1 CPT
CC(C)CSc1n[nH]c(=S)s1,-2%,-19%
Cc1cc(NS(=O)(=O)c2c(C)[nH]c(=O)[nH]c2=O)ccc1Br,-9%,4%

Reformatted: entries from further up
SMILES,N370S GC,DT40 TDP1 CPT
Cc1c(NC(=O)c2ccc(COc3ccc4ccccc4c3)o2)c(=O)n(-c2ccccc2)n1C,-5%,?
COc1ccc(CSCC(=O)N/N=C/c2ccccc2OCc2ccccc2)cc1,20%,?
CCCCSc1nc2c(cc1C#N)CCC2,14%,-1%

(more compounds)
SMILES	N370S GC	DT40 TDP1 CPT
CCc1ccc(CN(C)C(=O)C2=CC=CN3CCS(=O)(=O)N=C23)cc1	-3%	-15%
Cc1cc2oc(C(=O)Nc3ccc(S(=O)(=O)Nc4nccs4)cc3)cc(=O)c2cc1Cl	4%	13%
CCc1nnc(NC(=O)/C=C/c2ccc(C)o2)s1	-20%	1%
CC1CCCC(C)N1C(=O)CSc1nc(N)c(-c2ccccc2)c(=O)[nH]1 (stereo not given)	0%	7%
CNC(=O)Nc1cc(C)nn1C	-2%	?
O=C1CCCCCCCCCC/C(=N\O)CCCO1	.	-20%
Cc1cccc(N(C(=O)c2snc(C(N)=O)c2N)C(C)C(=O)NCC2CCCO2)c1 (stereo not given)	2%	-2%
CCCOc1ccc(CCC(=O)O)cc1	9%	-13%
Cc1cccc(-n2c(N)cc(=O)nc2SCC(=O)Nc2ccccc2)c1	5%	4%
O=C(CSc1nnnn1-c1cccnc1)Nc1ccccc1F	-21%	5%
Cc1ccccc1NC(=O)CSc1nnc(C)c2ccccc12	13%	-4%
OCC[C@@H]1C[C@H](O)[C@@H](O)[C@]2(Cc3ccccc3CCO2)O1	-4%	-5%
Cc1ccc(S(=O)(=O)NC2(C(F)(F)F)C(=O)Nc3c2c(=O)n(C)c(=O)n3C)cc1 (stereo not given)	3%	-22%
COCCn1nnnc1C(c1ccccn1)N1CCN(c2cc(Cl)ccc2C)CC1 (stereo not given)	-6%	?
COc1ccccc1S(=O)(=O)N1CCN(S(=O)(=O)c2ccccc2C#N)CC1	-12%	-11%
COc1ccc(Cc2noc(COc3ccc(Cl)cc3)n2)cc1	10%	-5%
Cc1cc2ccccc2c(=O)n1CC(=O)NCc1ccco1	9%	-8%
CN(C)c1cccc(C(=O)NCCCn2ccc3ccccc32)c1	7%	?
Cc1cc(=O)oc2cc(NS(=O)(=O)c3ccccc3)ccc12	?	-19%
COc1cc(NC(=O)COC(=O)/C=C/c2ccc(OC)c(OC)c2)cc(OC)c1	-1%	?
Cc1cccc(NS(=O)(=O)c2cccc(C(=O)N3CCCCCC3)c2)c1	-3%	?
CC1CCCC(C)N1/N=C/c1cc(Br)cc(Br)c1O (stereo not given)	-1%	-2%
COc1ccc(C2C3=C(CCCC3=O)Nc3n[nH]c(C)c32)cc1OC (stereo not given)	1%	-13%
CCc1nccn1CCC(=O)N1CCCC(Nc2ccc(F)cc2)C1 (stereo not given)	-6%	-16%
CSc1ccc(S(=O)(=O)N(CC(=O)NCc2ccccn2)c2ccc(C)cc2)cc1	0%	-11%
COc1ccccc1C(=O)Nc1ccccc1C(=O)N1CCCC1	5%	-19%
Cn1c(=O)c2c(nc(SCc3nc(N)nc(N4CCCCC4)n3)n2C)n(C)c1=O	-3%	21µM*
Cc1ccc(S(=O)(=O)N2CCCC2CNC(=O)C(=O)Nc2ccc(F)cc2)cc1 (stereo not given)	-9%	21µM*
COc1ccc(OCCSc2ncn[nH]2)cc1	-21%	4%
COc1ccccc1NC(=O)CCC(=O)c1ccc(-c2ccccc2)cc1	0%	?
COc1ccc(CCNC(=O)c2ccc(N(C)S(=O)(=O)c3ccc(C)cc3)cc2)cc1	2%	?
CCCCOc1ccc(C(=O)OC(C)CN(C)C)cc1 (stereo not given)	26%	1%
CCN(C(=O)c1cn(C)c(=O)c2cc(OC)c(OC)cc12)c1cc(C)ccc1C	4%	13%
CCCCNC(=O)C1(NC(=O)Nc2ccc(C)cc2)CCCCC1	1%	7.3µM*
O=C(NNc1c(Cl)cncc1Cl)c1cccs1	3%	-2%
COc1ccc(NC(=O)c2cc(-c3ccccc3O)n[nH]2)cc1Cl	-6%	-15%
CC1(NC(=O)c2cccc(S(=O)(=O)N3CCN(c4ccc(F)cc4)CC3)c2)CCS(=O)(=O)C1 (stereo not given)	-8%	?
COC(=O)CN(C#N)c1nc(NCc2ccccc2)nc(OC)n1	-9%	?
COCCCn1c(SCC(=O)n2c(C)c(C)c3ccccc32)nnc1-c1ccoc1C	-2%	?
O=C(Oc1ccc(Cl)cc1)c1ccc(N2CCOCC2)c([N+](=O)[O-])c1	?	6%
Cc1cccnc1NC(=O)c1ccc2c(c1)OCO2	3%	-10%
Cc1cc(S(=O)(=O)N2CCCC(N3CCOCC3)C2)c(C)cc1Cl (stereo not given)	-4%	?
O=C(Nc1ccccc1)c1cnc(-c2ccccc2)nc1-c1ccccc1	9%	?
COc1ccc(CCN2C(=O)CC(NNC(=O)c3ccc(F)cc3)C2=O)cc1OC (stereo not given)	1%	8%
Cc1ccc(-c2ccc(CCC(=O)O)n2CC(=O)O)cc1	9%	6%
O=C(COc1ccc2c3c(c(=O)oc2c1)CCC3)N1CCN(c2ccccc2)CC1	4%	?
Cc1[nH]cnc1CSCc1ccc(Cl)cc1	-13%	-19%
COc1ccc(Nc2cc(=O)n(-c3ccccc3)c3c2c(=O)n(C)c(=O)n3C)cc1	3%	16%
O=c1c2ccccc2n(Cc2ccc(Cl)cc2)c(=O)n1Cc1ccco1	12%	-28%
COc1ccc(C)cc1-n1c(SCC(=O)Nc2cccc(C(=O)O)c2)nc2ccccc2c1=O	11%	4%
COc1ccc(Oc2c(C)oc3c(CN4CCOCC4)c(O)ccc3c2=O)cc1	-2%	-8%
Cc1cc(C)n(-c2c(C)[nH]c3ccccc23)n1	9%	-6%
COc1ccc(OC)c(/C=N/NC(=O)CCN2CCN(C(c3ccccc3)c3ccccc3)CC2)c1	11%	?
COC(=O)C1C(=O)C2=C(CC1C)NC(C)=C(C(=O)OCc1ccc(OC)cc1)C2c1ccc(C)o1 (stereo not given)	1%	?
COc1cccc(CNC(=O)CCC2CCCN(C(=O)c3cscn3)C2)c1 (stereo not given)	-7%	-8%
CN1CCN(S(=O)(=O)c2ccc(N3CCN(c4ccc(O)cc4)CC3)c([N+](=O)[O-])c2)CC1	-15%	?
Cc1nnc(NC(=O)C2CSC3(C)CCC(=O)N23)s1 (stereo not given)	1%	-17%
COc1ccc(NC(=O)c2cc(-c3ccccc3Cl)no2)cc1	-5%	-28%
COc1ccc(OC)c(C(=O)c2coc3ccc(OCC(=O)O)cc23)c1	.	-11%
COc1ccc(OC)c(C(=O)NC(CC(N)=O)c2ccc(N3CCN(c4ccc(F)cc4)CC3)c([N+](=O)[O-])c2)c1 (stereo not given)	-6%	?

A second format for some results above.
> CN1CCN(S(=O)(=O)c2ccc(N3CCN(c4ccc(O)cc4)CC3)c([N+](=O)[O-])c2)CC1
- N370S GC: -15%
- DT40 TDP1 CPT: ?
> Cc1nnc(NC(=O)C2CSC3(C)CCC(=O)N23)s1 (stereo not given)
- N370S GC: 1%
- DT40 TDP1 CPT: -17%
> COc1ccc(NC(=O)c2cc(-c3ccccc3Cl)no2)cc1
- N370S GC: -5%
- DT40 TDP1 CPT: -28%
> COc1ccc(OC)c(C(=O)c2coc3ccc(OCC(=O)O)cc23)c1
- N370S GC: .
- DT40 TDP1 CPT: -11%

Next part.
SMILES	N370S GC	DT40 TDP1 CPT
NC(=O)c1cc(C(=O)Cc2ccccc2)c[nH]1	3%	9%
Cc1ccc(S(=O)(=O)N2CCc3cc4c(cc3C2C)OCCCO4)cc1 (stereo not given)	-6%	18µM*
CC(=O)N1CCc2c(sc(NC(=O)C3CCCN3S(=O)(=O)c3cccs3)c2C(N)=O)C1 (stereo not given)	7%	21µM*
CN(C)/C=C1\Cc2ccccc2C1=O	-8%	33µM*
CCC/C=C1\CCCOC(C(=O)NCc2ccccc2)(C(F)(F)F)C1 (stereo not given)	-5%	.
Clc1ccc(CSc2nnc(CNc3cccc(Cl)c3)o2)cc1	9%	?
COc1ccccc1S(=O)(=O)Cc1ccc(C(=O)N2CCCC2)o1	6%	2%
O=S(=O)(Nc1nc2ccccc2nc1Cl)c1cccc(C(F)(F)F)c1	0%	-3%
COCc1nnc(NC(=O)c2cccc(NC(=O)c3ccccc3)c2)s1	-1%	?
C=CCc1ccccc1OCCCCN1CCCC1	-4%	?
COc1cc(Cl)c(C)cc1NC(=O)COc1cc(C)nc(C(C)C)n1	8%[2.35 µM]	?
CCOc1ccc(N(C(=O)c2cc3ccccc3oc2=O)C2C=CS(=O)(=O)C2)cc1 (stereo not given)	2%	4%
COc1cccc(NC(C)(C)c2nnnn2-c2c(C)cccc2C)c1	1%	8%
O=S(=O)(O)c1cc(O)c2ccc(Nc3ccccc3)cc2c1	.	2%

Bioassay records as filed in PubChem.

Only part of the results is shown, and most or all hits are left out here.
